High-throughput results deposited in PubChem BioAssay by Broad Institute.
MITF inhib: blocks MITF activity. TRPM1 promoter luciferase, luminescence, 24 h. inhibition, % (no concentration beside the values). 0.28% of 37,000 active;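 active means most replicates at 85% or more, or half of them and the mean; inconclusive means half reach 85% but not the mean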;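 further: human melanocyte line stably carrying TRPM1 promoter luciferase reporter; 0% = vehicle wells and 100% = a positive control; the first replicate is given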
YB-1 expr inh: YB-1 expression inhibition; U2OS, qRT-PCR YB-1 vs CDIP delta delta Cp, 16 h; stronger effect = higher value; zero = DMSO, each unit about twofold; delta delta Cp (YB-1 minus CDIP) (test concentration not listed); 0.37% of 30,000 active; AID 434959;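 active means delta delta Cp rounded down to an integer at or above 3, about 3 SD of DMSO wells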;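 further: higher means less YB-1 transcript or more CDIP transcript relative to DMSO; stock transfer was 100 nL into about 100 µL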
PD-1 reverse act: activators reversing PD-1 mediated T-cell inhibition; AID 2316; activation, % (concentration not given with the values); 29,000 tested, under 10 active; primary human CD4 T cells, PD-L1 beads, CellTiter-Glo 96 h;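 active means replicate mean of 50% or more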;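 further: 0% = median vehicle wells and 100% = positive control; 100 nL library stock added to about 50 µL; numbers are from one replicate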
Hedgehog inh: Sonic Hedgehog pathway inhibition. Shh-LIGHT2 Gli-luciferase reporter, 30 h. inhibition, % (test concentration not listed). 2.1% of 22,000 active. AID 2313;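 active means replicate mean of 65% or more; inconclusive means mean lower but half the replicates past it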;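 further: pathway switched on by Shh-conditioned medium diluted 1 in 25 in low serum; 100 nL library stock added to about 40 µL; 0% = median of neutral wells and 100% = positive control level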
Active calls of the source: *; ? = inconclusive; · = no result given. Some of the compounds tested. The share of hits here may be higher or lower than overall.

SMILES	MITF inhib	YB-1 expr inh	PD-1 reverse act	Hedgehog inh
Cc1cc(=O)[nH]c(SCC(=O)N2CCC(C(N)=O)CC2)n1	-16	·	1.4	·
COc1ccc(S(=O)(=O)N(C)C[C@H]2Oc3ccc(NC(=O)NC4CCCCC4)cc3CC(=O)N([C@@H](C)CO)C[C@@H]2C)cc1	5	-0.22	0.2	21
C[C@H]1CN([C@@H](C)CO)C(=O)Cc2cc(NS(=O)(=O)c3cn(C)cn3)ccc2O[C@H]1CN(C)C(=O)Nc1ccccc1	24	-0.39	1.8	-5
Cc1noc(C)c1S(=O)(=O)Nc1cccc2c1O[C@@H](CN(C)C(=O)NC1CCCCC1)[C@@H](C)CN([C@H](C)CO)C2=O	10	0.17	-0.7	-16
C[C@H](CO)N1C[C@H](C)[C@H](CN(C)C(=O)Nc2ccc3c(c2)OCO3)Oc2c(NS(=O)(=O)c3ccc(F)cc3)cccc2C1=O	5	2.9	-1.6	-89
CN(CC(=O)Nc1ccccc1C#N)S(=O)(=O)c1ccc(Br)cc1	-12	·	1.8	·
COc1ccc([N+](=O)[O-])cc1NC(=O)C1(c2ccc(OC)c(OC)c2)CCCCC1	11	·	-3.6	·
C[C@@H]1CCCCO[C@@H](CN(C)S(=O)(=O)c2ccc(F)cc2)[C@@H](C)CN([C@H](C)CO)C(=O)c2cc(NS(=O)(=O)c3ccc(Cl)cc3)ccc2O1	45	-0.02	-9.3	-53
CC1CCC/C=C/C(=O)c2c(O)cc(O)cc2CC(=O)O1 (centres undefined)	38	0.2	-14	7
C[C@H](CO)N1C[C@H](C)[C@H](CN(C)S(=O)(=O)c2ccccc2)Oc2c(cccc2N(C)C)C1=O	2	-0.16	0.0	0
Cc1cccc(C)c1Nc1nc2c(C)cc(C)c(C)c2s1	16	-0.22	-1.4	-37
Cc1ccc(NC(=O)CSc2nc(C)cc(C(F)(F)F)n2)cc1	5	·	-1.3	·
O=C(c1ccc(Cl)cc1)c1oc2ccccc2c1-c1cnn(-c2ccccc2)c1	-75	0.72	2.6	-8
C[C@@H]1CCCCO[C@H](CN(C)C(=O)CCC(F)(F)F)[C@@H](C)CN([C@H](C)CO)C(=O)c2cc(NS(C)(=O)=O)ccc2O1	-2	-0.73	2.3	-10
COc1cc(NS(=O)(=O)c2ccc(NC(=O)c3cccc4ccccc34)cc2)ncn1	-6	·	0.8	·
Cc1noc(C)c1S(=O)(=O)Nc1ccc2c(c1)C(=O)N([C@H](C)CO)C[C@@H](C)[C@H](CN(C)S(=O)(=O)c1cn(C)cn1)O2	1	-0.21	2.6	·
COc1ccc(NC(=O)N(C)C[C@H]2Oc3ccc(NC(=O)Nc4ccc5c(c4)OCO5)cc3CC(=O)N([C@H](C)CO)C[C@H]2C)cc1	1	0.1	-0.6	24
C[C@@H]1CN([C@@H](C)CO)C(=O)Cc2cc(NC(=O)CCCN(C)C)ccc2O[C@@H]1CN(C)S(=O)(=O)c1cccs1	-1	-1.3	·	·
Cc1ccc(S(=O)(=O)NC(C)C(=O)Nc2ccc3c(c2)OCCO3)cc1 (centres undefined)	-5	·	0.9	·
Cc1ccc(C(C)C)c(OCC(=O)Nc2cccc3nsnc23)c1	10	·	-2.0	·
Cc1noc(C)c1S(=O)(=O)N(C)C[C@H]1Oc2ccc(NC(=O)Cc3ccccc3)cc2CC(=O)N([C@H](C)CO)C[C@H]1C	-3	0.003	1.1	?
COc1ccccc1NC(=O)CCc1nc(-c2ccc(Cl)cc2)no1	6	·	-0.6	·
Cc1ccc(S(=O)(=O)Nc2ccc3c(c2)C(=O)N([C@@H](C)CO)C[C@@H](C)[C@@H](CN(C)Cc2ccc(Cl)c(Cl)c2)O3)cc1	75	0.47	-1.6	15
COc1ccc(NC(=O)Nc2cccc3c2O[C@@H](CN(C)Cc2ccc(C(F)(F)F)cc2)[C@H](C)CN([C@H](C)CO)C3=O)cc1	11	0.49	-2.6	-8
CNC[C@@H]1Oc2ccc(NS(C)(=O)=O)cc2CC(=O)N([C@H](C)CO)C[C@@H]1C	5	0.28	1.2	-17
COc1ccc(CN(C)C[C@@H]2Oc3ccc(NS(=O)(=O)c4cccs4)cc3CC(=O)N([C@@H](C)CO)C[C@@H]2C)cc1	-2	0.73	·	-5
C[C@@H]1CN([C@H](C)CO)C(=O)c2cc(NC(=O)Nc3cccc4ccccc34)ccc2O[C@H]1CN(C)C(=O)NC1CCCCC1	2	0.27	-0.8	-12
C[C@@H]1CN([C@H](C)CO)C(=O)c2cccc(NC(=O)Nc3cccc4ccccc34)c2O[C@H]1CN(C)C(=O)NC1CCCCC1	33	0.082	-4.0	18
CC1(C)CC(=O)C2=C(C1)NCN(Cc1ccc3c(c1)OCO3)C2	-14	-0.21	0.6	-21
COc1ccc(S(=O)(=O)N(C)C[C@H]2Oc3ccc(NC(=O)C4CC4)cc3CC(=O)N([C@@H](C)CO)C[C@@H]2C)cc1	-12	-0.061	0.0	-32
O=C(O)c1cc2cc(Cl)ccc2oc1=O	-10	-0.19	0.8	23
C[C@@H]1CN([C@H](C)CO)C(=O)Cc2cc(NC(=O)C3CC3)ccc2O[C@H]1CN(C)Cc1ccc(Cl)c(Cl)c1	-17	0.31	-1.6	-1
COc1ccc(S(=O)(=O)N(C)C[C@@H]2Oc3ccc(NS(=O)(=O)c4ccc(F)cc4)cc3C(=O)N([C@H](C)CO)C[C@@H]2C)cc1	-9	0.24	·	·
NS(=O)(=O)c1ccc(NC(=S)NCc2cccnc2)cc1	-7	·	-0.3	·
Cc1noc(C)c1S(=O)(=O)Nc1ccc2c(c1)CC(=O)N([C@H](C)CO)C[C@H](C)[C@H](CN(C)Cc1ccncc1)O2	12	-0.25	0.1	-7
COc1ccc(S(=O)(=O)N(C)C[C@H]2Oc3ccc(NC(=O)Cc4ccccc4)cc3C(=O)N([C@H](C)CO)C[C@@H]2C)cc1	-3	0.071	0.0	-9
COc1ccc(NC(=O)N(C)C[C@@H]2Oc3ccc(NS(=O)(=O)c4ccc(Cl)cc4)cc3C(=O)N([C@@H](C)CO)C[C@@H]2C)cc1	-6	0.27	5.3	·
COc1ccc(S(=O)(=O)N(C)CC(=O)NC2CCCC2)cc1	4	·	1.6	·
Cc1noc(C)c1S(=O)(=O)Nc1ccc2c(c1)C(=O)N([C@H](C)CO)C[C@@H](C)[C@@H](CN(C)CC1CCCCC1)O2	?	-0.11	·	-73
O=C(CC1C(=O)N(c2ccc(F)cc2)C(=O)N1Cc1ccccn1)Nc1ccccc1 (centres undefined)	-7	·	1.3	·
Cc1ccc(NC(=O)c2cc(=O)[nH]c(=O)[nH]2)cc1	-33	0.17	1.7	-20
N#CC1=C(SCC(=O)Nc2ccccc2C(=O)c2ccccc2)NC(=O)CC1c1ccccc1F (centres undefined)	16	·	-0.5	·
COc1cccc(OC)c1C(=O)Nc1cccc(C(=O)Nc2ccccc2C(=O)O)c1	-2	·	1.0	·
COc1cc2ncnc(Nc3cccc(Br)c3)c2cc1OC	1	-0.27	6.5	-71
CN(C)[C@@H]1C(=O)C(C(N)=O)C(=O)[C@@]2(O)C(=O)C3C(=O)c4c(O)ccc(Cl)c4[C@@H](O)[C@H]3C[C@@H]12 (some centres undefined)	-17	-0.17	·	-11
COc1ccc(C(=O)CC2(O)C(=O)N(Cc3ccccc3Cl)c3ccc(Cl)cc32)cc1OC (centres undefined)	52	·	-2.2	·
CCOC(=O)c1ccccc1NC(=O)CN1C(=O)c2cccc3cccc1c23	33	·	-2.0	·
Nc1nc(N(Cc2ccccc2)Cc2ccccc2)nc(C(F)(F)F)n1	20	-0.28	0.1	?
Cc1ccc(S(=O)(=O)Nc2ccc3c(c2)C(=O)N([C@@H](C)CO)C[C@H](C)[C@H](CN(C)C)O3)cc1	-12	0.14	0.2	-9
CCCCCCCCCCCCCC(=O)N[C@@H](C)[C@H](O)c1ccccc1	16	0.89	3.2	-47

(next part)
SMILES	MITF inhib	YB-1 expr inh	PD-1 reverse act	Hedgehog inh
C[C@@H]1CCCCO[C@H](CN(C)S(=O)(=O)c2ccccc2)[C@@H](C)CN([C@H](C)CO)C(=O)c2cc(NS(=O)(=O)c3cccs3)ccc2O1	-4	-0.15	-0.7	-3
COc1ccc(CN(C)C[C@@H]2Oc3c(NC(=O)C4CCCCC4)cccc3C(=O)N([C@@H](C)CO)C[C@H]2C)cc1	19	-0.29	-6.6	12
Cc1noc(C)c1S(=O)(=O)Nc1ccc2c(c1)C(=O)N([C@H](C)CO)C[C@@H](C)[C@@H](CN(C)S(=O)(=O)c1cccs1)O2	-18	0.26	-1.4	·
CNC(=O)CSCc1ccc(Br)cc1	-30	0.23	0.3	-57
C[C@H]1CN([C@@H](C)CO)C(=O)Cc2cc(NC(=O)Cn3cnnn3)ccc2O[C@@H]1CN(C)Cc1ccc(-c2ccccc2)cc1	-6	1.2	1.4	3
C[C@@H]1CCCCO[C@H](CN(C)C(=O)c2ccccc2)[C@@H](C)CN([C@H](C)CO)C(=O)c2cc(NS(=O)(=O)c3ccc(Cl)cc3)ccc2O1	4	0.13	·	-20
Cc1ccc2nc(SCc3nc4ccccc4n3C)[nH]c2c1	-63	·	-0.5	·
CC(C)NC(=O)N(C)C[C@@H]1OCCCC[C@@H](C)Oc2ccc(NS(=O)(=O)c3ccccc3)cc2C(=O)N([C@H](C)CO)C[C@@H]1C	-15	-0.22	·	-37
C[C@H](CO)N1C[C@H](C)[C@@H](CN(C)C(=O)NC2CCCCC2)Oc2c(NS(=O)(=O)c3ccccc3)cccc2C1=O	-4	-0.055	0.7	-33
C[C@@H]1CN([C@H](C)CO)C(=O)c2cccc(NC(=O)c3nc4ccccc4s3)c2O[C@@H]1CN(C)Cc1ccc(Oc2ccccc2)cc1	6	0.2	-2.7	-10

Of the compounds above, 3 contain an aryl thioether with sulfur outside any ring:
SMILES	MITF inhib	YB-1 expr inh	PD-1 reverse act	Hedgehog inh
Cc1cc(=O)[nH]c(SCC(=O)N2CCC(C(N)=O)CC2)n1	-16	·	1.4	·
Cc1ccc(NC(=O)CSc2nc(C)cc(C(F)(F)F)n2)cc1	5	·	-1.3	·
Cc1ccc2nc(SCc3nc4ccccc4n3C)[nH]c2c1	-63	·	-0.5	·

No new results follow: an excerpt of the list.
SMILES	MITF inhib	YB-1 expr inh	PD-1 reverse act	Hedgehog inh
C[C@H]1CN([C@@H](C)CO)C(=O)Cc2cc(NC(=O)Cn3cnnn3)ccc2O[C@@H]1CN(C)Cc1ccc(-c2ccccc2)cc1	-6	1.2	1.4	3
C[C@@H]1CCCCO[C@H](CN(C)C(=O)c2ccccc2)[C@@H](C)CN([C@H](C)CO)C(=O)c2cc(NS(=O)(=O)c3ccc(Cl)cc3)ccc2O1	4	0.13	·	-20

Other compounds follow.
SMILES	MITF inhib	YB-1 expr inh	PD-1 reverse act	Hedgehog inh
CNC(=O)CN(c1ccc(C)cc1)S(=O)(=O)c1ccc(Cl)cc1	-3	·	2.3	·
Cc1ccc(OCC(=O)Nc2ccc(Cl)cc2C(=O)O)cc1C	12	·	1.6	·
OCC(CO)(CO)NC(=S)Nc1cc(Cl)cc(Cl)c1	5	0.18	-0.2	4
COc1ccc(C2COc3cc(O)ccc3C2)c(O)c1 (centres undefined)	·	-0.42	·	-24
C[C@@H]1CN([C@H](C)CO)C(=O)Cc2cc(NC(=O)Nc3ccc(C(F)(F)F)cc3)ccc2O[C@@H]1CN(C)S(=O)(=O)c1ccccc1	14	-0.12	-4.0	21
CC(C)NC(=O)N(C)C[C@@H]1Oc2c(NC(=O)Nc3cccc4ccccc34)cccc2C(=O)N([C@@H](C)CO)C[C@@H]1C	20	-0.37	-1.7	3
Cc1ccnc(SCC(=O)Nc2cccc(Cl)c2)n1	-15	·	0.0	·
C[C@@H]1CCCCO[C@@H](CN(C)Cc2ccc(Cl)c(Cl)c2)[C@@H](C)CN([C@H](C)CO)C(=O)c2cc(NC(=O)c3ccccc3)ccc2O1	31	0.32	-6.3	11
Cc1nc(C)c(C(=O)C2C(=O)C(=O)N(CCN(C)C)C2c2ccccc2F)s1 (centres undefined)	-11	·	0.4	·
C[C@H](CO)N1C[C@H](C)[C@H](CN(C)Cc2ccc3c(c2)OCO3)Oc2ccc(N(C)C)cc2CC1=O	6	0.19	-0.9	-9
CCc1oc2ccccc2c1C(=O)c1cc(Br)c(O)c(Br)c1	13	-0.31	·	-23
COc1ccc(CN(C)C[C@@H]2Oc3c(NS(=O)(=O)c4ccc(Cl)cc4)cccc3C(=O)N([C@H](C)CO)C[C@@H]2C)cc1	6	-0.074	-0.3	8
C[C@H]1CN([C@@H](C)CO)C(=O)c2cccc(NC(=O)C3CCCCC3)c2O[C@H]1CN(C)S(=O)(=O)c1ccc(Cl)cc1	8	0.16	0.1	98*
C[C@@H]1CN([C@H](C)CO)C(=O)Cc2cc(NS(=O)(=O)c3cn(C)cn3)ccc2O[C@@H]1CN(C)C(=O)Nc1ccc(F)cc1	-11	0.21	-2.2	-6
C[C@@H]1CN([C@H](C)CO)C(=O)c2cccc(NS(=O)(=O)c3cccs3)c2O[C@H]1CN(C)C(=O)Nc1ccc2c(c1)OCO2	1	-0.12	2.0	9
C[C@@H]1CN([C@@H](C)CO)C(=O)c2cc(NC(=O)C3CC3)ccc2O[C@H]1CN(C)S(C)(=O)=O	-8	-0.33	·	-6
